# PABP polyA inh – PABP poly(A) RNA binding inhibitors, primary screen, biochemical, fluorescence polarization, uHTS; inhibition, % at 35 µM; Polyadenylate-binding protein 1 (Homo sapiens), P11940; 1% of 290,000 active; AID 2014, 2009;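 active = 50% or more with normal probe brightness, or confirmed in later tests; about a fifth of its hits are not listed in these tables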;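 note: calls also rest on retests at 20 µM and on dose response follow-up; controls were probe without protein and protein plus probe with vehicle; some compounds called inactive have numbers as strong as hits; many hits fall short of the cut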
# Target sequence (P11940 whole entry, looked up): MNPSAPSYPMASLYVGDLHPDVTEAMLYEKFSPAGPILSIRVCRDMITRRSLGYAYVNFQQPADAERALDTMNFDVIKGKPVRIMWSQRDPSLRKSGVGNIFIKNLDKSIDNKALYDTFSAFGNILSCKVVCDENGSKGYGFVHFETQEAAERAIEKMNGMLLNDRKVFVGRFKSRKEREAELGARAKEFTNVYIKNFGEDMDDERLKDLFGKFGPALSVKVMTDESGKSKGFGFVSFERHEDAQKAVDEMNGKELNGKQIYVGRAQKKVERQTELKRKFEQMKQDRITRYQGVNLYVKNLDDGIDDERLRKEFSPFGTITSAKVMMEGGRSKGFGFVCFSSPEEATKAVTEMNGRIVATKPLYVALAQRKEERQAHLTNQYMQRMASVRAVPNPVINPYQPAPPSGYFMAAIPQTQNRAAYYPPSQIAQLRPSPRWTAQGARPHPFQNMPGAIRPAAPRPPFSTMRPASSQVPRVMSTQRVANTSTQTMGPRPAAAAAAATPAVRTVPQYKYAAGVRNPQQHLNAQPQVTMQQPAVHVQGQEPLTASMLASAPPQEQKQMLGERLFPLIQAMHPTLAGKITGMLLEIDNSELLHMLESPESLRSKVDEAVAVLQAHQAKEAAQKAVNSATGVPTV
# MT1-MMP act inh – blockers of MT1-MMP proenzyme processing, primary screen, HT1080 RFP-PRO-GFP cells, GFP/RFP fluorescence | Matrix metalloproteinase-14 (Homo sapiens), P50281 | GFP/RFP ratio fluorescence, overnight; percent of plate control window, DMSO zero | GFP/RFP ratio change, % at 20 µM | 0.061% of 360,000 active | AID 651647, 2012;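 active = GFP/RFP ratio change of at least 30% with cell ATP level not reduced by more than half and red fluorescence within 50% of control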; note: strong numbers were not always called active
#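 Assay system: HT1080 RFP-PRO-GFP cells. Benchmarks: DMSO vehicle wells and RFP-L50D-GFP reporter cell wells. Times: overnight cell settling, then overnight compound exposure, 37 °C, 5% CO2. Compound: 20 µM single dose, 1% DMSO. Read-out basis: GFP/RFP fluorescence ratio.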
# Yeast UUG start – modulators of yeast start codon fidelity, primary screen, whole organism, S. cerevisiae, single point, plate reader. 0.13% of 350,000 active. activity score, % at 18.7 µM. AID 602363, 2012. S. cerevisiae UUG-firefly luciferase reporter, luminescence/redox ratio;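 active = replicate mean at a twofold rise or more, about +100% in these data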;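 note: firefly luciferase made from a UUG start codon reports start codon fidelity; reporter light over untreated wells divided by growth signal over untreated wells; some hits fall short of that in this replicate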
# Rce1 inhib – yeast Rce1p protease inhibitors, primary screen, biochemical, fluorescence, cell-free homogeneous; CAAX prenyl protease 2 (Saccharomyces cerevisiae (strain ATCC 204508 / S288c)), Q03530; yeast membranes, quenched prenylated peptide cleavage fluorescence; calls only; 0.27% of 290,000 active; AID 2563, 2010;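 active = fall in fluorescence gain of 50% or more versus controls, with final raw signal at or below 3038400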;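 note: plate controls were neutral control wells for no effect and wells lacking membranes for full effect; tested at 10 µM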
# CSC inhib – cancer stem cell viability inhibitors, primary screen, luminescence; cancer stem cell-like cells viability; inhibition, % at 7.5 µM; 1.1% of 300,000 active; AID 2717, 2010;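 active = mean at 75% or more and at least half the replicates too; tested in HMLE shEcad cells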;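 note: 0% = median of negative and 100% = median of positive control wells; the first replicate is given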
# HIV Env fusion – inhibitors of HIV-1 Env-driven cell-cell fusion, primary screen, HeLa-JRFL effector, CEM21 target cells, luciferase; inhibition, % at 12.3 µM; 1.1% of 360,000 active; AID 651610, 2012;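 active = mean replicate inhibition score of at least 50 and every replicate individually at or above 50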;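 note: 0% = plate neutral controls and 100% = maraviroc near 300 nM; one replicate is shown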
# eIF4H FP inh – human eIF4H binding inhibitors, primary screen, translation initiation inhibitor project, biochemical, uHTS, fluorescence polarization | inhibition, % at 35 µM | Eukaryotic translation initiation factor 4H (Homo sapiens), Q15056 | eIF4H fluorescence polarization binding assay | 0.94% of 290,000 active;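 active = 50% or more with normal probe brightness, or confirmed in later tests; about a fifth of its hits are not listed in these tables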;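 note: calls also rest on retests at 20 µM and on dose response follow-up; 0% = protein and probe with vehicle and 100% = probe without protein; strong numbers were not always called active; many hits fall short of the cut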
# MT1-MMP act inh RFP – second read-out of MT1-MMP act inh, no call of its own (marks repeat the call); RFP signal change, %; measured here: RFP expression control read;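 0 = vehicle wells; hits needed this value within 50% of zero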
# Numbers without * were called inactive; i = inactive; / = no result given. A portion of the library; the hit share may differ from the screen's.
SMILES,PABP polyA inh,MT1-MMP act inh,MT1-MMP act inh RFP,Yeast UUG start,Rce1 inhib,CSC inhib,HIV Env fusion,eIF4H FP inh
Cc1ccccc1N(C(=O)CCCC(=O)Nc1ccccn1)C(C(=O)NC1CCCC1)c1ccc(O)cc1 (stereo not drawn),6,-6,-3,13,i,/,4,-6
CC1(C)C(=O)Nc2ccccc2N1C(=O)COc1ncnc2ccccc12,-6,-6,-1,-11,i,6,-14,-8
O=C(Cn1ncn2c(cc3ccccc32)c1=O)NCCC1=CCCCC1,-4,-5,-2,-21,i,/,11,-8
CC(=O)c1cccc(S(=O)(=O)Nc2ccc3nc(C)sc3c2)c1,32,0,-26,-2,i,-2,50,8
COC(=O)C1=C(C)NC(C)=C(C(=O)OC(C)C)C1c1cccc2nonc12 (stereo not drawn),-2,-3,-4,-14,i,-3,-18,6
O=C(c1ccc2nc[nH]c2c1)N1CCN(c2cccc(Cl)c2)CC1,-3,2,0,-23,i,5,/,6
O=C(/C(=C/c1ccncc1)n1ccnc1)c1ccc(Cl)cc1Cl,0,/,/,/,/,/,10,-9
CC(=O)Nc1ccc(Br)c(Cl)c1,-2,2,3,-15,i,4,-43,-5
CNC(=S)N/N=C/c1cn(CCOc2ccccc2OC)c2ccccc12,1,9,0,/,i,28,22,-6
O=S1(=O)CCN=C2SC3=C(CCCC3)N21,1,5,0,-6,i,-10,/,-6
CCN(CC)C(=O)Cn1c(=O)n(Cc2ccc(F)cc2)c(=O)c2sccc21,11,4,-3,-23,i,-2,12,-2
O=S(=O)(Nc1cc(Cl)ccc1-n1cncn1)c1ccccc1Cl,/,0,1,-8,/,/,-2,/
CN(C)S(=O)(=O)c1cccc(NC(=O)c2ccc3c(c2)OCCO3)c1,/,-2,-11,-2,i,/,-12,/
COc1ccc(/C=N/NC(=O)C(=O)N2CCCC2)cc1,-8,6,6,-14,i,-6,3,2
CCOC(=O)C1CCCN(c2nc3ccccc3nc2C(C#N)C(=O)OCCOC)C1 (stereo not drawn),4,-15,-6,-7,i,-2,/,-2
Cc1cccc2c1NC1(CCCC1)CC2C (stereo not drawn),-3,30*,25*,-18,i,-10,9,-5
Cc1cc2ncn(S(=O)(=O)c3ccc(S(N)(=O)=O)cc3)c2cc1C,/,2,2,10,/,/,5,/
N=c1c(C(=O)NC2CCCC2)cc2c(=O)n3ccccc3nc2n1CC1CCCO1 (stereo not drawn),2,0,-1,-15,i,-5,4,12
COc1cc(C(=O)N2CCC2(C)C(=O)NC(C)C)cc(OC)c1OC (stereo not drawn),/,4,7,-9,/,/,12,/
COC(=O)[C@H]1[C@H](CCc2ccccc2)NC(=O)N(Cc2ccccc2)[C@@H]1C,/,/,/,-1,i,6,-13,/
COCc1nnc(NC(=O)c2ccc(NC(C)=O)cc2)s1,0,7,4,-18,i,-9,-75,6
COc1cccc(NC(=O)C(Sc2nnc3ccccn23)c2ccccc2)c1 (stereo not drawn),-11,-2,3,-6,i,7,-10,-11
Cc1sc(NC(=O)c2ccco2)c(C(c2ccc(F)cc2)N2CCN(C)CC2)c1C (stereo not drawn),1,-6,-4,/,i,-1,/,14
O=C(CN(C(=O)c1csnn1)c1ccccc1C(F)(F)F)NC1CCCCC1,1,-2,-5,-10,i,-21,4,-1
c1cncc(C(c2nnnn2C2CCCCC2)N2CCCCC2)c1 (stereo not drawn),5,/,/,-3,i,1,15,2
SMILES,PABP polyA inh,MT1-MMP act inh,MT1-MMP act inh RFP,Yeast UUG start,Rce1 inhib,CSC inhib,HIV Env fusion,eIF4H FP inh
CN(c1ccc(OC(=O)CC2OC(=O)c3ccccc32)cc1)S(=O)(=O)c1ccccc1 (stereo not drawn),/,-3,1,-7,/,16,/,/
CCc1ccc(NC(=O)COc2coc(CN3CCc4ccccc4C3)cc2=O)cc1,/,0,-5,-31,i,-7,/,/
COc1ccc(C(CNC(=O)C2CC(=O)N(Cc3ccc(C)cc3)C2)N(C)C)cc1 (stereo not drawn),3,1,3,-9,i,-6,-12,-4
NC(=O)c1cc([N+](=O)[O-])ccc1N1CCN(Cc2ccccc2)CC1,6,1,-3,0,i,-3,-14,-4
COc1ccc(CNc2nc(-c3cccnc3)nn2C(C)=O)cc1,-2,-5,0,-11,i,-4,-7,-8
CCCCC(=O)N1CCN(c2nc3ccc(Cl)cc3s2)CC1,3,-3,-21,-29,i,-12,-18,-12
CCN(Cc1ccccc1)C(c1ccccn1)c1nnnn1C(C)(C)CC (stereo not drawn),-3,-10,-7,-21,i,/,/,-2
COc1cc(-c2nc(-c3cccc(C)c3)no2)cc(OC)c1OC,0,1,-1,-2,i,7,-11,-4
CCn1nc(C)c(/C=C/C(=O)Nc2ccc(C)cc2C)c1C,-9,11,0,/,i,/,/,-4
Cc1cc(C(=O)Nc2c(F)cc(F)cc2Br)cs1,4,-3,0,-33,i,/,19,-1
C/C(CC(=O)NC1CCCC1)=N\NC(=O)Cc1csc(N)n1,-2,2,6,-8,i,-4,/,7
COc1ccc(S(=O)(=O)NC(CC(=O)NCCc2ccccc2)c2ccco2)cc1 (stereo not drawn),1,1,0,-8,i,/,7,-2
Fc1cc2[nH]cnc2cc1Cl,1,4,1,/,i,-4,-4,-2
O=C(Nc1ccccc1)OCN1C(=O)c2ccccc2C1=O,-4,2,-7,3,i,-8,-39,-2
CN(C)c1ccc(C=NCCc2ccc(S(N)(=O)=O)cc2)cc1,3,4,0,-12,i,-16,9,27
Cc1cc(N2C(=O)[C@@H]3[C@H](C2=O)[C@@H]2C[C@H]3C(Br)C2Br)no1 (stereo partly drawn),2,5,1,7,i,-3,10,4
CC12CC(c3ccccc3O1)N(C(=O)c1ccco1)C(=O)N2c1ccccc1 (stereo not drawn),-6,1,-1,3,i,-1,/,-13
Cc1sc2ncnc(NCC3CCCO3)c2c1C (stereo not drawn),-3,1,-8,-16,i,-3,/,3
COC(=O)CCS(=O)(=O)c1nc(-c2ccccc2)cc(C(F)(F)F)n1,0,-10,-11,/,i,/,/,-3
CCC(=O)N1CCc2cc(S(=O)(=O)CCC(=O)Nc3cccc(F)c3)ccc21,-2,0,1,-13,i,18,10,-5
O=S(=O)(c1ccc(F)cc1)N1CCN(c2nc(-c3cccnc3)nc3ccccc23)CC1,/,-13,-5,-7,/,/,10,/
CCOC(=O)c1cnn(-c2cc(C)c3ccccc3n2)c1N,-11,1,0,-14,i,-4,/,-7
c1ccn2cc(CSC3=NCCS3)nc2c1,-1,-1,1,0,i,-9,/,0
CCN(CC)S(=O)(=O)c1ccc(/C=C/C(=O)Nc2c(C)n(C)n(-c3ccccc3)c2=O)cc1,-1,1,1,/,i,-10,3,-5
Cc1c(C)n2c(SCC(=O)N3CCC(C)CC3)nnc2[nH]c1=O,/,0,3,/,i,-10,-16,/
SMILES,PABP polyA inh,MT1-MMP act inh,MT1-MMP act inh RFP,Yeast UUG start,Rce1 inhib,CSC inhib,HIV Env fusion,eIF4H FP inh
COc1ccc2c(c1)C(=O)[C@@H](O)[C@H](c1ccc(OC)c(Br)c1)O2,12,-7,1,-14,i,-27,/,-4
COc1ccc(CNC(=O)CCCCCNc2nc(=S)[nH]c3ccccc23)cc1,18,-3,-3,-18,/,12,3,-7
Cn1cccc1C(=O)OCC(=O)NCCc1ccccc1,/,0,3,-12,/,6,/,/
Cc1ccc(C(=O)NNC(=O)CSc2nnc(C(C)C)n2C)cc1,18,0,2,-7,i,26,3,48
CNC(=S)N1N=C(c2ccc(C)cc2)CC1c1ccc(Cl)cc1 (stereo not drawn),-4,1,-8,-23,i,5,19,6
COc1ccc(C2=NN(C(=O)CCC(=O)O)C(c3ccc(Br)cc3)C2)cc1 (stereo not drawn),-6,-8,0,9,i,-6,2,6
CC(=O)c1c(C)[nH]c(C(=O)NNC(=O)c2ccc(C)cc2)c1C,/,2,0,-6,/,-6,-3,/
CC1CCCC(NC(=O)COC(=O)c2ccc([N+](=O)[O-])o2)C1C (stereo not drawn),/,-1,4,-13,/,8,3,/
Cc1cc(C)c(S(=O)(=O)N(C)CC(=O)NCC2CCCO2)c(C)c1 (stereo not drawn),17,1,4,-13,i,/,1,-3
CCCN1CNC(=S)N(c2cccc(C)c2)C1,14,0,2,-14,i,-2,-16,0
COC(=O)Cn1c(=O)c2c(nc(Br)n2CC(=O)OC)n(C)c1=O,-6,0,2,8,i,/,/,-9
CCOc1ccc(C(=O)N[C@H](C(=O)NC2CCCCC2)C(C)C)cc1,/,-5,-4,-5,/,/,4,/
COc1cccc(CNc2nc(C(F)(F)F)nc3ccccc23)c1,-6,-2,-19,-3,i,27,23,-10
CCOC(=O)N1CCC(NC(=O)c2cccc3c2C(=O)N(c2ccc(OC)cc2)C3)CC1,/,-1,2,-8,i,-6,6,/
O=C(c1ccc(-c2ccc(Cl)cc2Cl)o1)N1CCOCC1,-7,2,-3,/,i,1,-57,-6
CCOC(=O)CSc1nnc(-c2cccnc2)n1Cc1ccccc1,4,6,7,7,i,-5,/,-8
NC(=O)C1(N2CCCCC2)CCN(C(=S)NC2CCCC2)CC1,-13,-1,-4,/,i,-5,-18,-4
O=C(N/C(=C/c1ccc(Br)cc1)C(=O)N1CCOCC1)c1ccco1,-2,-2,3,-10,i,-1,-22,-18
O[C@@H]1CN(CC2CCCCC2)[C@@H](c2ccccc2)C[C@H]1n1cc(C2CC2)nn1,/,-5,-8,6,/,/,-13,/
O=C1C2C3C=CC(C3)C2C(=O)N1Nc1ccccc1 (stereo not drawn),-5,-4,-1,/,i,-15,-2,-9
COc1ccc(NC(=O)c2ccccn2)cc1S(=O)(=O)N1CCOCC1,-2,-4,0,/,i,-7,15,4
O=C(CS(=O)CC(=O)Nc1cnc2ccccc2c1)Nc1ccc(Cl)cc1 (stereo not drawn),-7,5,-3,4,i,-6,5,-6
COc1cccc(Cn2c3ccc(NC(=O)Cc4ccccc4C)cc3c(=O)n2C)c1,/,5,-2,-15,/,/,-6,/
O=C(NN1CC(=O)N(c2cc(Cl)cc(Cl)c2)CC1=O)c1sccc1Cl,6,0,0,-2,i,-16,-4,-1
COc1ccc(NC(=O)CN(C)C(=O)CNC(=O)c2ccc3c(c2)OCO3)cc1,/,3,5,/,i,-12,4,/
Cc1ccc(Oc2ccc(N)cc2)cc1,-6,3,-2,6,i,5,31,-13
CC1CCCCC1NC(=O)NC(=O)COC(=O)C1=NN(c2ccccc2)C(=O)CC1 (stereo not drawn),/,-1,-1,14,/,/,-5,/
COc1ccc(/C=N/NC(=O)CNC(=O)c2ccc(S(=O)(=O)N3CCOCC3)cc2)c(OC)c1,1,-2,-1,-9,i,15,-4,-3
COC(=O)c1ccc(Cl)c(NC(=O)CN2CCC(C)CC2)c1,8,2,0,-18,i,10,-13,-11

# Compound profiles, from the list above. Order of screens: PABP polyA inh, MT1-MMP act inh, MT1-MMP act inh RFP, Yeast UUG start, Rce1 inhib, CSC inhib, HIV Env fusion, eIF4H FP inh
# Results for CCn1nc(C)c(/C=C/C(=O)Nc2ccc(C)cc2C)c1C : -9, 11, 0, /, i, /, /, -4
# Results for c1ccn2cc(CSC3=NCCS3)nc2c1 : -1, -1, 1, 0, i, -9, /, 0
# Results for COc1ccc(/C=N/NC(=O)C(=O)N2CCCC2)cc1 : -8, 6, 6, -14, i, -6, 3, 2
# Results for COC(=O)CCS(=O)(=O)c1nc(-c2ccccc2)cc(C(F)(F)F)n1 : 0, -10, -11, /, i, /, /, -3

# From PubChem
